# Rango release inh = inhibitors of RanGTP-induced Rango-importin beta complex dissociation; O95149+P62826; Biochemical FRET Rango-importin beta, RanGTP-induced dissociation; Potency, µM (series often up to 46.1 µM), without a hit: top-dose activity change, negative = inhibition; hit rate 0.071% among 340,000; active means falling FRET ratio curve, often poorly fitted, with flat reads before Ran was added; inconclusive means other falling curves, or compound fluorescence or quenching; inactive means flat or rising ratio curve;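 also: potency is read from the fitted curve at half-maximal effect; % of control where 0% means no effect; nearly all actives have a fitted effect of over 45% in size; -100% = wells without RanGTP and RCC1; the record marks most hits as doubtful in a second field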
#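 Quantitative HTS using a FRET biosensor: 0.1 uM Rango, 0.25 uM importin beta, 0.6 uM Ran, 2 mM GTP, 0.2 uM RCC1 final, PBS with DTT, Tween-20 and BSA. Post-read taken 45 min after Ran addition.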
# miR-21 reporter = miR-21 reporter, rising signal; HeLa miR-21 FLuc reporter, luciferase, 48 h; Potency, µM (highest dose often 38.3 µM), for the others: top-dose reporter change, positive = more light; 340,000 tested, under 10 active; AID 2288; active = well fitted rising curve with a large enough effect; inconclusive = small, poorly fitted or top-dose-only effect; inactive = no such curve, though single readings can be large or run the other way;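 also: % of control where 0% means no effect; miR-21 action dims this reporter so a rising signal means less miR-21 action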
#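 HeLa miR-21-FLuc reporter line, endogenous miR-21; 2000 cells/well in DMEM/10% FBS; compound titration up to ~40uM final, 48 h, 37 degree Celsius; luciferase detection reagent, 15 min lysis, CCD luminescence.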
# GLA inh pH 4.5 = inhibitors of human alpha-galactosidase A at pH 4.5. P06280. purified enzyme, 4-MU-alpha-Gal fluorescence, pH 4.5. activity change, negative = inhibition, % at 105 µM. 230,000 tested, under 10 active. AID 1467; inconclusive = small, poorly fitted or top-dose-only inhibition, or a rising curve; inactive = flat fitted curve, though single readings scatter; no compound was filed as active;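 also: 0% = full activity with enzyme and -100% = basal without enzyme; dose as in the result columns while the protocol names 77 µM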
# Target sequence (P06280 whole entry, looked up): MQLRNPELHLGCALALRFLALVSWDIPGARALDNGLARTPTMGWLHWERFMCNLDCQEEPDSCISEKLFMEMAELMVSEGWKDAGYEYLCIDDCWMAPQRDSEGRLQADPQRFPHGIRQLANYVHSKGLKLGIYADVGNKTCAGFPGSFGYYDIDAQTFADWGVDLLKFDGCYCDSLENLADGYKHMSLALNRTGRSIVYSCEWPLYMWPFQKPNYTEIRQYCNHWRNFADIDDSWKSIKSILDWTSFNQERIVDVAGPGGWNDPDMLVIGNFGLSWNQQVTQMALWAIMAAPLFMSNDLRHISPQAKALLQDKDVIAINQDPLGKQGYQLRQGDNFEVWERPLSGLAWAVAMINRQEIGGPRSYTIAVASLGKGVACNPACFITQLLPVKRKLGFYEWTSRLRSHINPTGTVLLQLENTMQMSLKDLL
# Rango complex inh = prevents formation of the Rango-importin beta complex; AID 540263; Q14974; Potency, µM (series often up to 92.2 µM), for inactives: top-dose inhibition of complex formation; hit rate 0.031% among 340,000; Rango CFP/YFP FRET sensor + importin beta, 45 min; active = rising FRET ratio curve, often small or poorly fitted; inconclusive = mostly compound fluorescence or quenching in the first reads; inactive = flat curves in all reads;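 also: potency is read from the fitted curve at half-maximal effect; 0% = DMSO wells and 100% = buffer wells lacking importin beta; nearly all actives have a fitted effect of over 15% in size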
#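 Inhibition scored from the CFP 486 nm/YFP 530 nm FRET ratio 45 min after adding 0.125 microM importin beta to 50 nM Rango biosensor preincubated 5 min with compound (room temperature, PBS with DTT, Tween-20, BSA). No-importin wells as positive control.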
# * = called active by the depositor; ? = inconclusive; / = not tested or not shown; & = joins results of further samples; [ ] = another dose, or the depositor's remark. An excerpt (hit frequency here may not be typical).
# Values run as follows: Rango release inh | miR-21 reporter | GLA inh pH 4.5 | Rango complex inh
1. COc1ccccc1CCN=C(N)NS(=O)(=O)c1ccc(F)cc1
 : 0.9% | 3.9% | / | 0.1%
2. O=C(O)c1cc2ccccc2n1-c1ccccc1
 : ? | -0.9% | -4.0 | -1.1%
3. Cc1cc2n(n1)C(c1ccc(N(C)C)cc1)Nc1ccccc1-2 (stereo unspecified)
 : -0.4% | -30.3% | 23.3 | 0.0%
4. O=C1CC(CCC(=O)NC2CC2)c2ccccc2N1 (stereo unspecified)
 : -13.1% | -1.3% | -2.5 | 2.7%
5. COc1cc(N)c(Br)cc1C(=O)O
 : 3.2% | 0.3% | 3.2 | 1.3%
6. CN(C)C1=NC(=O)/C(=C\c2ccccc2)S1
 : -3.5% | -2.0% | -4.6 | 1.8%
7. Cc1cccc(C)c1NC(=O)N1CC=C(n2c(=O)[nH]c3ccccc32)CC1
 : 0.2% | -7.9% | -0.4 | -0.3%
8. CCCCn1c(N)c(N(CCC(C)C)C(=O)C2CCCN(C(=O)c3ccc(Cl)cc3)C2)c(=O)[nH]c1=O (stereo unspecified)
 : -11.0% | / | / | -0.7%
9. CC(C)n1ncc2c(C(=O)NCc3ccccc3CN(C)C)cc(C3CC3)nc21
 : 27.6% | / | / | 3.4%
10. CN(C(=O)CSc1nnc(NCc2ccccc2)s1)C1CCS(=O)(=O)C1 (stereo unspecified)
 : 5.3% | -1.6% | 6.4 | 3.5%
11. Cc1ccccc1OCc1nnc(SCC(=O)NCc2ccccc2)n1C
 : 0.1% | 1.8% | 2.8 | ?
12. COc1ccc2cc(C(N)=O)c(=Nc3ccccc3)oc2c1
 : -4.1% | -43.5% | -2.0 | 0.4%
13. O=c1[nH]c(CN(CCc2ccccc2)S(=O)(=O)c2ccc(Cl)cc2)nc2ccccc12
 : -0.4% | -22.0% | -5.0 | -3.6%
14. Cc1ccc(S(=O)(=O)NCCS(=O)(=O)N2CCN(c3ccccc3)CC2)cc1
 : -5.8% | 3.6%&-0.1% | / | 2.1%
15. O=C(C1CC1)N1CCC(Oc2cccc(C(=O)N3CCCCC3CCO)c2)CC1 (stereo unspecified)
 : -0.4% | -1.5% | / | ?
16. COc1ccc(CCNc2oc(-c3ccco3)nc2C#N)cc1
 : 7.9% | -20.9% | -8.1 | -2.1%
17. O=C(CNC(=O)c1ccco1)OCc1ccc(Br)cc1
 : -7.8% | 1.4% | / | 0.0%
18. C/C(=N/N=C/c1ccccc1O)c1ccccc1O
 : ? | -55.1% | / | 36.6µM*
19. N#Cc1c(-c2ccccc2)nc2n1CCS2
 : 5.8% | -21.0% | 1.0 | 0.3%
20. Cc1ccc(-c2nnn3c2nc(NCCc2ccc(S(N)(=O)=O)cc2)c2ccccc23)cc1
 : ? | -1.9% | -0.3 | ?

# Full records from above:
# Listed for CC(C)n1ncc2c(C(=O)NCc3ccccc3CN(C)C)cc(C3CC3)nc21 = Rango release inh: 27.6%; miR-21 reporter: /; GLA inh pH 4.5: /; Rango complex inh: 3.4%
# Listed for C/C(=N/N=C/c1ccccc1O)c1ccccc1O = Rango release inh: ?; miR-21 reporter: -55.1%; GLA inh pH 4.5: /; Rango complex inh: 36.6µM*

# (further entries)
# Values run as follows: Rango release inh | miR-21 reporter | GLA inh pH 4.5 | Rango complex inh
21. COc1ccccc1CCNC(=O)c1ccoc1C
 : -0.7% | -25.7% | 1.6 | -0.9%
22. CCC(Sc1nc(N)c(NC(=O)c2ccc(OC)cc2)c(=O)[nH]1)C(=O)O (stereo unspecified)
 : -6.0% | 2.2% | 0.1 | 4.3%
23. Cc1c(C(=O)N2CCCCC2)c(S(=O)(=O)Nc2ccc(F)cc2F)c(C)n1C
 : 1.2% | -1.6% | / | 0.4%
24. CC1=C(C(=O)Nc2ccc(F)cc2)C(c2ccc(C)o2)C2=C(CC(C)(C)CC2=O)N1 (stereo unspecified)
 : 2.4% | -0.7% | 3.9 | -5.5%
25. CCOC(=O)c1c(C(=O)OCC)c(C)n(CCc2ccc(OC)c(OC)c2)c1C
 : 25.4% | -1.5% | 8.1 | -0.3%
26. COc1ccc(CCCc2n[nH]c(=S)n2C)cc1C
 : 15.0% | -3.2% | 7.4 | 0.5%
27. CC(C)Sc1cc(N2CCOCC2)nc(-c2ccc(Cl)cc2)n1
 : -1.2% | -4.7% | -12.7 | 0.0%
28. Cc1ccc(NC(=S)N2CCN(S(C)(=O)=O)CC2)cc1
 : 1.7% | 0.4% | / | 0.2%
29. CC(NC(=O)CN1C(=O)NC2(CCCCC2)C1=O)c1ccc(S(N)(=O)=O)cc1 (stereo unspecified)
 : -10.1% | / | / | -0.7%
30. CCOC(=O)c1nc2cc3n(c(C)c-2c1C)C(C)C(C)=C3C (stereo unspecified)
 : 0.5% | -8.6% | 3.8 | ?
31. Cc1cc(C)cc(NC(=O)c2cccc3c2C(=O)N(C2CCCCC2)C3)c1
 : 9.3% | -6.2%&0.5% | / | 0.4%
32. CCOc1ccc(N2C(=O)S/C(=C\c3ccc(O)c(OC)c3)C2=O)cc1
 : ? | -3.2% | -14.1 | ?
33. ON=C1c2ccccc2-c2ccc(O)cc21
 : 0.7% | / | / | 0.2%
34. CCc1ccccc1NC(=S)N(Cc1cccnc1)Cc1ccco1
 : 12.7% | -10.7% | -0.7 | -1.0%
35. COc1cccc(C(=O)NC(=S)N2CCN(c3ccc(C(F)(F)F)cc3[N+](=O)[O-])CC2)c1
 : -13.5% | -13.9% | -3.9 | -0.5%
36. COc1ccc(N2C(=O)CSCC2=O)cc1OC
 : -12.6% | -1.8% | -0.9 | -6.2%
37. COc1ccc(C2CCN(Cc3cccnc3)CC2O)cc1 (stereo unspecified)
 : -2.8% | 5.7% | 0.3 | 0.5%
38. COc1cccc(CN(C)C(=O)CNC(=O)c2ccc(-c3ccccc3)cc2)c1OC
 : -5.2% | 24.6% | / | 1.5%
39. CC1CCN(S(=O)(=O)c2cnc[nH]2)CC1
 : 2.2% | -0.6% | / | 2.8%
40. O=C(c1cccc(C(F)(F)F)c1)C1CCCN(Cc2cccc(OCCO)c2)C1 (stereo unspecified)
 : -6.5% | 1.8% | -1.9 | -3.3%

# Next part.
# Values run as follows: Rango release inh | miR-21 reporter | GLA inh pH 4.5 | Rango complex inh
41. O=C(O)C1C2C=CC(C3CC23)C1C(=O)O (stereo unspecified)
 : -14.4% | -1.1% | 5.7 | 1.5%
42. O=C(Nc1ccccc1N1CCOCC1)c1ccc(OCc2cscn2)cc1
 : -4.2% | 0.0% | / | 0.8%
43. O=C(NC(=S)NCc1ccccc1)C1CC1
 : 12.7% | -1.3% | 13.6 | 1.2%
44. Cc1ccc(NC(=O)c2ccnc(C(C)(C)C)c2)cc1
 : -10.9% | -30.6% | 1.3 | 0.4%
45. CCOC(=O)c1csc(NC(=O)CN2CCOCC2)n1
 : -22.6% | 5.1% | / | 2.0%
46. COc1ccccc1Cn1c(=S)[nH]c2cc(C(=O)N3CCC(C(N)=O)CC3)ccc2c1=O
 : ? | -8.2% | / | -1.8%
47. CCCN(C(=O)CSc1nnnn1C)C1CCS(=O)(=O)C1 (stereo unspecified)
 : -4.9% | -2.9% | 5.1 | 1.4%
48. CS(=O)(=O)N1CCCC(C(=O)Nc2ccc(F)cc2F)C1 (stereo unspecified)
 : -9.9% | 1.0% | 1.5[21.1 µM] | -3.3%
49. Cc1cc(C)n2nc(SCc3ccc(C#N)cc3)nc2n1
 : 0.9% | -15.9% | / | 0.4%
50. CCC(=O)c1ccc(OCC(=O)OCC(=O)NCc2cccs2)cc1
 : 2.1% | / | / | -0.5%
51. CCNc1nc(NCC)n2c(SCC(=O)Nc3ccccc3F)nnc2n1
 : -4.5% | / | / | -0.7%
52. O=C(Nc1ccc(N2CCCCC2)cc1)c1cncc(Br)c1
 : 5.5% | -36.5% | 11.6 | -0.4%
53. Cc1nn(CC(=O)N/N=C/c2ccc3c(c2)OCO3)c(C)c1Br
 : 9.3% | -7.1% | 6.6 | 3.4%
54. O=C1C=C(c2cccc(Br)c2)C[C@@H](c2ccc3c(c2)OCO3)C1
 : -15.0% | / | / | 0.8%
55. CCCC(=O)N(CCN1CCOCC1)c1nc2c(C)cccc2s1
 : 21.1% | -6.3% | / | 0.3%
56. c1ccc(Nc2nc3ccccc3o2)cc1
 : -11.3% | -36.6% | 2.2 | 3.8%
57. CC1CCc2c(sc(NC(=O)c3ccc(N4C(=O)CCC4=O)cc3)c2C(N)=O)C1 (stereo unspecified)
 : 1.5% | / | / | -7.1%
58. CC(C)c1nnc(NC(=O)CCS(=O)(=O)Cc2ccccc2)s1
 : 23.7% | 3.2% | / | 3.5%
59. CCCCNC(=S)N/N=C/c1cccc(OCC)c1O
 : 9.0% | -47.5% | 4.7 | 0.8%
60. O=C(CC(O)c1ccccc1)Nc1ccccn1 (stereo unspecified)
 : 7.2% | / | / | 2.2%

# Remaining list, next part.
# Values run as follows: Rango release inh | miR-21 reporter | GLA inh pH 4.5 | Rango complex inh
61. O=C1/C(=C/c2cccc3ccccc23)CCCc2ccccc21
 : 19.2% | -56.6% | -8.5 | -2.9%
62. CCCCOC(=O)Nc1cc(C)c(Cl)cc1OC
 : 8.5% | -5.1% | -1.1 | -1.1%
63. CCCC(=O)Nc1cc(C(F)(F)F)ccc1N1CCOCC1
 : 9.0% | -5.8% | 6.1 | -2.3%
64. O=C(COc1ccc2c(c1)C(=O)CC1(CCCCC1)O2)NCc1ccccn1
 : 4.6% | -2.0% | 5.4 | 1.9%
65. Fc1ccc(N2CCN(C3=Nc4cccc5cccc3c45)CC2)cc1
 : 3.0% | -24.6% | -5.0 | 14.3%
66. COC(=O)c1ccccc1NC(=S)NC(NC(=O)c1ccco1)C(Cl)(Cl)Cl (stereo unspecified)
 : 19.3% | -2.7% | -24.7 | -1.5%
67. Clc1cccc(N/N=C/c2ccc(N3CCOCC3)cc2)c1
 : -14.9% | -53.6% | 5.2 | -1.6%
68. c1ccc(-c2ccc(CNC3CC3)cc2)cc1
 : 13.8% | -36.9% | / | 0.4%
69. CCOc1ncccc1C(=O)NNC(=O)c1ccc(NS(=O)(=O)c2cccs2)cc1
 : 18.7% | / | / | 3.6%
70. CC1CCN(S(=O)(=O)c2ccc(C(=O)Nc3nnc(-c4ccncc4)o3)cc2)CC1
 : -6.4% | ? | -2.2 | -4.9%
71. COc1ccc(Cc2nc3ccc(C(=O)N(C)Cc4nccs4)cc3o2)cc1OC
 : 22.7% | 18.5% | / | -5.8%

# Molecules shown so far that have fluorine:
# Values run as follows: Rango release inh | miR-21 reporter | GLA inh pH 4.5 | Rango complex inh
1. COc1ccccc1CCN=C(N)NS(=O)(=O)c1ccc(F)cc1
 : 0.9% | 3.9% | / | 0.1%
23. Cc1c(C(=O)N2CCCCC2)c(S(=O)(=O)Nc2ccc(F)cc2F)c(C)n1C
 : 1.2% | -1.6% | / | 0.4%
24. CC1=C(C(=O)Nc2ccc(F)cc2)C(c2ccc(C)o2)C2=C(CC(C)(C)CC2=O)N1 (stereo unspecified)
 : 2.4% | -0.7% | 3.9 | -5.5%
35. COc1cccc(C(=O)NC(=S)N2CCN(c3ccc(C(F)(F)F)cc3[N+](=O)[O-])CC2)c1
 : -13.5% | -13.9% | -3.9 | -0.5%
40. O=C(c1cccc(C(F)(F)F)c1)C1CCCN(Cc2cccc(OCCO)c2)C1 (stereo unspecified)
 : -6.5% | 1.8% | -1.9 | -3.3%
48. CS(=O)(=O)N1CCCC(C(=O)Nc2ccc(F)cc2F)C1 (stereo unspecified)
 : -9.9% | 1.0% | 1.5[21.1 µM] | -3.3%
51. CCNc1nc(NCC)n2c(SCC(=O)Nc3ccccc3F)nnc2n1
 : -4.5% | / | / | -0.7%
63. CCCC(=O)Nc1cc(C(F)(F)F)ccc1N1CCOCC1
 : 9.0% | -5.8% | 6.1 | -2.3%
65. Fc1ccc(N2CCN(C3=Nc4cccc5cccc3c45)CC2)cc1
 : 3.0% | -24.6% | -5.0 | 14.3%

# Screens from PubChem.
